From PubChem BioAssay
ClpP mod: qHTS Assay for Activators of ClpP. AID 651965, 2013. Potency, µM (titrated, usually from 57.5 µM), for the others: at the top dose activity change, negative = active. purified B. subtilis ClpP, FRET peptide cleavage, 20 min. 340,000 compounds, 1.9% hits; active = well fitted falling curve with a large enough effect; inconclusive = small, poorly fitted or top-dose-only effect; inactive = no such curve, though single readings can be large or run the other way; also: the source files actives as falling curves though it sought activators and does not explain the sign; nearly all actives have a fitted effect of over 65% in size; many hits overshoot -100%
Target sequence (P80244 whole entry, looked up): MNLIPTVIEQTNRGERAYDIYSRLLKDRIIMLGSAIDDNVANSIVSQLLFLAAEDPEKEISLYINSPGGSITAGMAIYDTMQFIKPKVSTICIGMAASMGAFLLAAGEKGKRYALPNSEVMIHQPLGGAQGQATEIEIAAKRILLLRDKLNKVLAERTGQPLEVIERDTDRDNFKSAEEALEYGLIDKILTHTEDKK
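ClpP 10 microg/mL final, pH 8 Tris/KCl buffer with BSA, glycerol, Tween-20; compound pinned in; FRET-FV substrate; RT 20 min; Ex320/Em430; ΔFRET vs ADEP 5.8 microM, DMSO, no enzyme.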
Active calls of the source: *; ? = inconclusive. Potency is read from the fitted curve at half-maximal effect. Only part of the results is shown; the hit share may differ from the screen's.

structure	ClpP mod
CCOc1ccc(-c2nnc(SCC(=O)NCCc3ccc(OC)c(OC)c3)nc2-c2ccc(OCC)cc2)cc1	-2.8%
CCS(=O)(=O)N1CCCC(C(=O)NCCOC)C1 (centres undefined)	0.5%
CC(C)NC(=O)N1CCN(S(=O)(=O)c2ccc3c(ccn3C)c2)CC1	0.5%
Cc1ccn2c(=O)cc(CSc3nnc(NC(=O)c4ccccc4Cl)s3)nc2c1	-6.9%
COc1cccc2sc(NC(=O)c3ccc4c(c3)OCCO4)nc12	4.1%
COc1cccc(NC(=O)C2CCN(S(=O)(=O)c3cc(-c4noc(C)n4)ccc3C)CC2)c1	-2.6%
Cc1ccccc1NC(=O)C(=O)NCC(c1ccc2c(c1)OCO2)N1CCN(c2ccccc2)CC1 (centres undefined)	-1.0%
COC(=O)[C@]12CCCCC=C1N(Cc1ccc3c(c1)OCO3)C(=O)[C@H](CC(=O)NCC1CCCCC1)C2	-0.4%
Cc1ccc(CNCc2ccc3c(c2)n(C)c(=O)n3C)cc1	0.5%
Cc1ccc(NC(=O)CSc2nccn2Cc2ccco2)cc1Cl	-0.7%
CCC(Oc1ccccc1)C(=O)Nc1cccc(OCc2cc(=O)n3cccc(C)c3n2)c1 (centres undefined)	-22%
Cc1ccc(-n2c3c(cc(-c4nc(-c5ccc(Cl)cc5)cs4)c2=O)C(=O)CC(C)(C)C3)cc1	?
CC(=O)c1cccc(NS(=O)(=O)c2cc(-c3onc(C)c3C)ccc2C)c1	-3.6%
Cc1oc(-c2cccc(Cl)c2)nc1Cn1c(SCc2ccc(F)cc2)nc2cccnc21	4.6%
COc1ccc(C)cc1NC(=O)c1cn(C)c(=O)c2cc(OC)c(OC)cc12	-0.8%
O=C(CC(c1cccs1)N1Cc2ccccc2C1=O)Nc1ccc(F)cc1 (centres undefined)	2.9%
Cc1ccc(CN(Cc2ccco2)C(=O)c2ccc(OCC(C)C)cc2)cc1	0.7%
COc1ccc(S(=O)(=O)c2nnn(-c3cc(Cl)c(OC)cc3OC)c2C)cc1	0.2%
Cc1ccsc1CN1CCc2nc(N3CCN(c4ccccc4F)CC3)ncc2C1	-2.7%
Cc1cccc(-c2nc3scc(CCNC(=O)c4ccc(Br)o4)n3n2)c1	-5.6%
O=C(COC(=O)c1ccc(C(F)(F)F)cc1)NC(=O)C1CCCCC1	-2.5%
COc1cc(C(CC(=O)Nc2ccc(Br)cn2)N2Cc3ccccc3C2=O)cc(OC)c1OC (centres undefined)	2.2%
CCC(Sc1nc2cc3c(cc2c(=O)n1CCCC(=O)NCc1ccc2c(c1)OCO2)OCO3)C(=O)NCCCOC (centres undefined)	-3.4%
CC(=O)Nc1ccc(S(=O)(=O)NCC2CCC(C(=O)NCc3ccccc3Cl)CC2)cc1 (centres undefined)	-5.5%
COc1ccc(CCNC(=O)c2cc(C)nc3c2c(C)nn3-c2ccccc2)cc1OC	-4.8%

The closing three records of the part before lead into the next.
structure	ClpP mod
CCC(Sc1nc2cc3c(cc2c(=O)n1CCCC(=O)NCc1ccc2c(c1)OCO2)OCO3)C(=O)NCCCOC (centres undefined)	-3.4%
CC(=O)Nc1ccc(S(=O)(=O)NCC2CCC(C(=O)NCc3ccccc3Cl)CC2)cc1 (centres undefined)	-5.5%
COc1ccc(CCNC(=O)c2cc(C)nc3c2c(C)nn3-c2ccccc2)cc1OC	-4.8%
CCCN1C(=O)CN(C2CCCCC2)C(=O)C1c1ccc(OC)c(OC)c1 (centres undefined)	0.6%
O=C1c2[nH]nc(-c3ccccc3O)c2C(c2ccc(F)cc2)N1CCO (centres undefined)	-0.2%
COc1cc(C2c3c(-c4ccccc4O)n[nH]c3C(=O)N2CCO)ccc1OCC(C)C (centres undefined)	-2.1%
COc1cccc(C(=O)Nc2nnc(S(=O)(=O)N3CCCc4ccccc43)s2)c1	-5.4%
Cc1ccc(-n2c3nc(=O)n(C)c(=O)c-3cc3c(Cl)cccc32)c(C)c1	39%
CCC(Sc1ncnc2sc3c(c12)CCCC3)C(=O)OC(C)C (centres undefined)	-2.9%
O=C(NCCCN1CCN(c2cccc(Cl)c2)CC1)c1cnn(-c2ccc(F)cc2)c1-n1cccc1	0.2%
COc1ccc(C2CC(=O)N(CC(=O)Nc3ccc(C(C)=O)cc3)c3ccccc3S2)cc1OC (centres undefined)	0.3%
CN1C(=O)c2cccc3c(S(=O)(=O)Nc4cccc(C(=O)O)c4)ccc1c23	-0.6%
CC(=O)N1CCCc2cc(S(=O)(=O)NCc3cccc(C)c3)ccc21	-1.2%
Clc1cccc(Cc2c(-c3ccco3)nc3c4ccccc4ccn23)c1	4.6%
CCOC(=O)Cc1ccc(NC(=O)N2CCc3c(sc4c3CCCC4)C2c2ccc(F)cc2)cc1 (centres undefined)	-5.8%
Cc1cc2nc(-c3cccc(Cl)c3)c(Cc3ccsc3)n2c(C)c1Br	-0.9%
O=C(CSc1ncc2c(n1)-c1ccccc1N(Cc1ccc(Cl)cc1)S2(=O)=O)c1ccc(Cl)cc1	-2.0%
COc1ccc(NC(=O)C(C)n2nc(-c3ccc(C)c(C)c3)ccc2=O)cc1OC (centres undefined)	1.5%
CN(C(=O)c1cnc(N2CCOCC2)c2ccccc12)c1ccccc1F	-8.2%
CC(=O)c1cccc(-n2c(=O)c3c4c(sc3n(Cc3cccc(C)c3)c2=O)CN(C(C)=O)CC4)c1	-6.1%
O=C(Cn1ncc2c(Cl)cccc21)NCc1cccc(F)c1	0.5%
CCOC(=O)c1c(C)oc2nc(C)nc(NCCc3ccc(OCC)cc3)c12	0.4%
Cc1cc(Cl)nc2nc(Cl)ccc12	-12%
CCc1nnc(SCc2nc(-c3ccccc3F)oc2C)c2cc3sccc3n12	-3.8%
O=C(CSc1ncc(-c2ccc(Cl)cc2)[nH]1)Nc1ccccc1F	-0.7%
Cc1ccc2c(c1)nc(SCC(O)c1ccc(Br)cc1)n2C (centres undefined)	-3.3%
Cc1cnc(-c2nc3ccccc3n2C(C)C(=O)Nc2c(C)cccc2C)cn1 (centres undefined)	-23%
CCN(CC)C(=O)Cn1c(SCC(=O)Nc2ccc(C)c(C)c2)nc2ccccc21	2.7%

Reformatted field by field: entries from further up
canonical_smiles: CC(=O)N1CCCc2cc(S(=O)(=O)NCc3cccc(C)c3)ccc21
  ClpP mod: -1.2%

canonical_smiles: Clc1cccc(Cc2c(-c3ccco3)nc3c4ccccc4ccn23)c1
  ClpP mod: 4.6%

canonical_smiles: CCOC(=O)Cc1ccc(NC(=O)N2CCc3c(sc4c3CCCC4)C2c2ccc(F)cc2)cc1 (centres undefined)
  ClpP mod: -5.8%

canonical_smiles: Cc1cc2nc(-c3cccc(Cl)c3)c(Cc3ccsc3)n2c(C)c1Br
  ClpP mod: -0.9%

(listing goes on)
structure	ClpP mod
O=S(=O)(c1ccc2nc(Nc3ccc(Br)cc3F)ccc2c1)N1CCCCC1	4.8%
O=c1c2sc3ccccc3c2n(Cc2ccccc2Cl)c(=O)n1Cc1ccccc1	-15%
COc1cccc(NC(=O)Cn2c(=O)n(Cc3nc(-c4ccccc4)no3)c(=O)c3ccccc32)c1	-10%
COc1ccc(NC(=O)c2c(C)oc3ccc(O)c(CN4CCCC(C)C4)c23)cc1 (centres undefined)	0.3%
Cc1cc(C)cc(Oc2c(C(F)(F)F)oc3c(CN4CCCC(C)C4)c(O)ccc3c2=O)c1 (centres undefined)	1.9%
COc1cc(OC)c(NC(=O)c2c(C)nn(-c3ccc(C)cc3)c2-n2cccc2)cc1Cl	-4.9%
CCOc1ccc(S(=O)(=O)N2Cc3ccccc3CC2C(=O)Nc2ccc(NC(C)=O)cc2)cc1 (centres undefined)	-1.8%
O=C(NCCC1=CCCCC1)c1ccc2c(c1)N(Cc1ccccc1F)C(=O)c1ccccc1S2=O (centres undefined)	-1.3%
CCc1cccc(NC(=O)C2CCN(C(=O)c3cnn(-c4ccccc4)c3-n3cccc3)CC2)c1	-0.2%
Cc1ccc(-n2nc(C(=O)N3CCCCC3C)c(=O)n(C)c2=O)cc1 (centres undefined)	2.3%
COc1ccc(-c2nc3ccc(C(=O)NCc4ccc(C)cc4)cc3nc2-c2ccc(OC)cc2)cc1	-23%
CC1CCN(S(=O)(=O)c2ccc3c(ccn3CC(=O)NCc3ccc(N(C)C)cc3)c2)CC1	-12%
CCOc1ccc(CCNC(=O)CCc2cn(Cc3ccccc3F)c3ccccc23)cc1OCC	-4.1%
Cc1c(NC(=O)c2ccc(OC(C)C)cc2)cccc1-c1nc2ncccc2o1	-21%
CCOC(=O)C(C)Sc1nc(-c2ccccc2)ccc1C#N (centres undefined)	?
O=C(Nc1nnc2n1CCS2)c1cc(C(F)(F)F)cc(C(F)(F)F)c1	-1.3%
Cc1nn2c(C)c(C(=O)NCC(C)c3ccccc3)cnc2c1-c1ccccc1 (centres undefined)	-2.2%
COc1ccc2c(CNC3CCC(C)CC3)c(C(=O)O)n(Cc3ccccc3)c2c1 (centres undefined)	-28%
CCn1ccc2cc(S(=O)(=O)N3CCC(C(=O)NCCOC)CC3)ccc21	-1.4%
CC(=O)Nc1ccc(NS(=O)(=O)c2c(C(=O)N3CCCCCC3)c(C)n(C)c2C)cc1	-1.4%
CC[C@H](C)NC(=O)CCCc1nnc2n(CCC(C)C)c(=O)c3sccc3n12	?
Brc1ccc[n+](CCC2CCCCC2)c1	0.4%
COc1ccc(CNC(=O)CCc2c(C)nn(-c3ccc(N4CCCCC4)nn3)c2C)c(OC)c1	-7.3%
CCOc1ccc(NC(=O)c2cc(S(=O)(=O)N3CCc4ccccc43)ccc2F)cc1	-4.9%
Cc1cccc(-n2ncc(C(=O)NCc3ccco3)c2C2CCN(C(=O)OC(C)(C)C)CC2)c1	-2.4%
CCCN1C(=O)C(Cc2nc3ccccc3c(=O)n2-c2cccc(C)c2)c2ccccc21 (centres undefined)	-2.6%
Cc1cccc(N2CCN(C(=O)C3CCN(S(=O)(=O)c4c(C)noc4/C=C/c4ccccc4F)CC3)CC2C)c1 (centres undefined)	1.4%
Cc1ccccc1CNC(=O)CN(c1cccc(C)c1C)S(C)(=O)=O	-11%
Cc1cc(C)n(-c2nc3cc(Cl)ccc3nc2N2CCN(c3ccccc3F)CC2)n1	-7.7%
COc1ccc(OC)c(C(=O)CC2(O)C(=O)N(Cc3ccccc3C)c3ccccc32)c1 (centres undefined)	-6.7%
CC1(C)CCc2cc(S(=O)(=O)N3CCN(c4nc(-c5cccs5)nc5ccccc45)CC3)ccc2O1	?
Cc1ccc(C(C)C)c(OCC(=O)Nc2cc(-c3nc4ccccc4[nH]3)ccc2C)c1	4.0%
Cc1nn(-c2ccccc2)c2c1N(CCCC(=O)NCc1ccc(Cl)cc1)C(=O)CS2	0.1%
CCc1ccccc1N(C)C(=O)c1cc2c(Cl)nc3ccc(C)cc3c2s1	0.1%
O=[N+]([O-])c1ccc(NN=CC2CCCCCC2)c([N+](=O)[O-])c1	3.2%
COc1cc(C(=O)Nc2ccc(OCc3cc(=O)n4ccc(C)cc4n3)cc2)cc(OC)c1OC	-27%
O=C(Nc1ccccc1OCc1cc(=O)n2ccccc2n1)Nc1ccccc1C(F)(F)F	1.3%
Cc1cc(/C=C2\C=Cc3ccccc32)ccc1N(C)C	0.0%
CCn1c(C)c(C)c2cc(C(=O)NCc3ccc(N(C)C)cc3)ccc21	?
COCCCNC(=O)c1cc(-c2ccc(OC)cc2)nc2n[nH]c(-c3ccc(Cl)cc3)c12	4.1%
Cc1ccc(-n2nc(C)c3c(C(=O)NCc4ccc(F)cc4)cc(C)nc32)cc1	149%
Cc1ccccc1NC(=O)c1ccc2[nH]c(C)c(C)c2c1	-6.2%
COc1ccc(C(=O)NNc2ncnc3c2cnn3-c2cccc(Cl)c2)cc1OC	-0.8%
CCCN(CCC)C(=O)Cn1c(=O)n(CCCCCC(=O)NCc2ccc3c(c2)OCO3)c(=O)c2sccc21	-0.2%
CCCCNC(=O)C[C@@H]1C[C@@]2(C(=O)OC)CC(C)(C)CC=C2N(Cc2ccccc2)C1=O	-3.9%
COC(=O)c1cc(C)nc2c1c(=O)nc(SCc1cccc(C(F)(F)F)c1)n2C1CC1	-1.5%
Cc1c(Cl)ccc2sc(N3CCN(C(=O)CCS(=O)(=O)c4ccc(F)cc4)CC3)nc12	-5.3%
CC(=O)c1ccc(NC(=O)CC(c2cccs2)N2Cc3ccccc3C2=O)cc1 (centres undefined)	-0.7%
CCCCNC(=O)Cn1c(SCc2ccccc2C)nc2ccncc21	-7.2%
Cc1ccc(C2c3c(-c4ccccc4O)n[nH]c3C(=O)N2CCCO)cc1 (centres undefined)	0.4%

New compounds follow:
structure	ClpP mod
CC1=C(c2ccc(Cl)cc2)S(=O)(=O)NC1=NCc1ccc(C)cc1	0.6%
CC(C)c1ccc(NC(=O)C2CCCN(S(=O)(=O)c3cccc4nonc34)C2)cc1 (centres undefined)	0.8%
Cc1ccc2c(CC(=O)N(Cc3ccc(N(C)C)cc3)Cc3ccco3)coc2c1C	-17%
CCOc1cc(CNC(=O)c2ccc3c(c2)N(C)C(=O)C2CCCCN32)cc(OCC)c1OCC (centres undefined)	-8.6%
COc1ccc(-c2nc3c(c(SCC(=O)N4CCCCC4)n2)Cc2cc(C)ccc2O3)cc1	-0.8%
CCN1CCN(c2ncnc3c2cnn3-c2ccc(F)cc2)CC1	-15%
O=C(CSc1nc(-c2ccccc2)cn1-c1ccccc1)Nc1ccccc1	-4.1%
